From PubChem BioAssay
NPYLR7 ag – mosquito NPYLR7 agonism; HEK293T NPYLR7/Galpha15, GCaMP6s calcium fluorescence; activation, % at 10 µM; 0.15% of 270,000 active; AID 1259423; in the data active = activation above about 40%;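 also: 0% = vehicle and 100% = reference agonist at the receptor; some compounds past the cut are filed as inactive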
NPYLR7 ag max-min – recorded beside NPYLR7 ag, whose call it bears; activation, %; measured here: Max-Min RFU normalised activation; some inactives read as strong as hits;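 span of the calcium signal over five minutes; 0% = vehicle and 100% = native peptide agonist; compound fluorescence can raise it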
* hit, by the source's call; & = joins results of further samples.

Structure	NPYLR7 ag max-min	NPYLR7 ag
CC(C)=CC(=O)NCc1cn(-c2ccccc2)nc1-c1ccncc1	10	15
O=S(=O)(NCc1nccs1)c1cc(F)c(F)cc1F	-4	-3
CCNc1cc(C)nc(N2CCN(C(=O)Nc3ccc(F)cc3)CC2)n1	1	6
CC(Cc1cnccn1)NC(=O)CCc1c[nH]c2ccccc12 (stereo not drawn)	6	4
Cc1ccc(S(=O)(=O)N(C#N)c2nc(N(C)C)nc(N(C)C)n2)cc1	6	2
CCOC(=O)C1CCCCN1CC(=O)N1N=C(c2ccc(OC)cc2)CC1c1ccccc1Cl (stereo not drawn)	-15	-16
Cc1nn(C)c(C)c1C=CC(=O)Nc1ccc(F)cc1	2	1
COC(C)c1ccc(-c2ccc(OC(C)C)nn2)cc1 (stereo not drawn)	7	1
Cc1nc(N2CCCC2)ncc1-c1cc(=O)[nH]c(N2CCC(Cc3ccccc3)CC2)n1	28	0
C=C(C)CN(CC)C(=O)Nc1ccc(C(F)(F)F)cc1	3	5
Cc1[nH]c(=O)c(C(=O)N(C)C(C)c2ccc(Cl)cc2)cc1-c1ccc(O)cc1 (stereo not drawn)	-1	-1
CSc1nc2ccc(N=Cc3c[nH]c4ccccc34)cc2s1	-1	1
CCCOc1ccc(C(=O)N2CCC(n3c(-c4ccccc4)nc4ccc(F)cc43)CC2)cc1	2	12
O=C(CCC1CCCN(Cc2cnc(-c3ccccc3)s2)C1)Nc1ccccc1F (stereo not drawn)	15	20
CN(Cc1cccc(F)c1)C(=O)C1CCN(S(=O)(=O)c2cc(C(N)=O)n(C)c2)CC1	9	3
CC(C)C(NC(=O)Cn1ncc2ccccc21)C(=O)N(C)C (stereo not drawn)	4	7
Cc1nc2ccccn2c(=O)c1NC(=O)COc1ccc(Cl)cc1	1	4
N=C1c2ccccc2CN1NC(=O)CC12CC3CC(CC(C3)C1)C2	4	6
CCCCCS(=O)(=O)CCCCCCCCCCn1c(-c2ccc(O)cc2)c(C)c2cc(O)ccc21	-23	-21
Cc1ccc(-c2nc(C=Nc3cccc4nsnc34)c(O)o2)cc1	-21	-16
O=C(N[C@@H]1C[C@@H]2CO[C@H](c3ccccc3)C[C@@H]2C1)c1ccc2c(c1)OCCCO2	4	4
COc1ccc(NC(=O)CCN(Cc2ccccc2)c2nc(-c3ccccc3)nc3ccccc23)cc1	25	10
O=C(CSc1nc2sc3c(c2c(=O)n1Cc1ccco1)CCC3)NCCc1ccccc1	-4	-4
COc1ccc(OC)c(S(=O)(=O)n2nc(C)c(S(=O)(=O)N3CCCC(C)C3)c2C)c1 (stereo not drawn)	1	4
COc1cc(/C=C2\Oc3c4c(cc(C)c3C2=O)OCN(C(C)C)C4)cc(OC)c1OC	9	17
Cc1nc(SC(C)C(N)=O)nc(C)c1C (stereo not drawn)	5	4
C[C@@H](O)[C@H]1C(=O)N2C(C(=O)O)=C(SC3CN[C@H](C(=O)N(C)C)C3)[C@H](C)[C@H]12 (stereo partly drawn)	-5	-4
CCCS(=O)(=O)Nc1ccc(N(C)C)c(CN(Cc2ccccc2)C(=O)C(CC)c2ccccc2)c1 (stereo not drawn)	37	22
COc1ccc(Cl)c(S(=O)(=O)NCc2cnn(C)c2)c1	0	4
CCc1c(C(=O)N(C)Cc2noc(C3CCC3)n2)[nH]c2ccccc12	3	5

Next part.
Structure	NPYLR7 ag max-min	NPYLR7 ag
CC(=O)N1CCCN(C(=O)CCc2cc3c(n2-c2ccc(C(C)C)cc2)-c2ccccc2OC3)CC1	1	1
COC(=O)C(NNc1ccc([N+](=O)[O-])cc1)(NC(=O)CC(C)C)C(F)(F)F (stereo not drawn)	0	3
O=C(NCCC(=O)N1CCCCCC1)c1cc2c(ccc3ccccc32)[nH]1	-6	-4
COc1ccc(C)c2sc(N(CCCN3CCOCC3)C(=O)Cc3ccc(F)cc3)nc12	-10	-2
Cc1nc(C(F)(F)F)ccc1-c1n[nH]c2c1CN(C(=O)C1COCCO1)CC2 (stereo not drawn)	-7	-1
Cc1cc(SC(C)C(=O)NC(=O)NC(C)C)nc2ccccc12 (stereo not drawn)	3	7
CC(C)Cc1cc(CNC(=O)c2ccc(Cl)cn2)on1	0	1
O=C(c1cccs1)N1CCCC(OCc2cc(F)cc(F)c2)C1 (stereo not drawn)	-7	-13
COc1ccc(NC(=O)N2CCN(CCCOC(c3ccc(Cl)cc3)c3ccc(Cl)cc3)CC2)c(C)c1	0	5
Cc1ccc(C)c(Cn2c(=O)c3c(nc4oc(C(C)(C)C)cn43)n(C)c2=O)c1	0	1
Cc1cccc(-n2ncc3c(=O)n(CCC(C)C)cnc32)c1C	4	9
Cc1cc(CCCC(=O)Nc2ccc(C(N)=O)cc2F)c(C)s1	7	12
CCOc1cccc(CNc2nn[nH]n2)c1	1	2
COc1ccc(-c2nn(CCc3ccccc3)c(=O)c3nc(C)sc23)cc1OC	-4	-2
Cc1cccc(-c2noc(N3CCOCC3)c2CN(CC2CCCO2)C(=O)C2CC2)c1 (stereo not drawn)	-5	-12
CCc1cc(Oc2ccccc2Cl)nc(SCc2ccccc2Cl)n1	12	17
O=C1C(=Cc2ccsc2)CS(=O)(=O)c2ccccc21	12	-4
COc1ccc(C2=N/C(=C\C(C)=C\c3ccccc3)C(=O)O2)cc1OC	-3	3
C[C@@H]1O[C@@H](OC[C@H]2OC(Oc3c(-c4ccc(OCCO)c(OCCO)c4)oc4cc(OCCO)cc(O)c4c3=O)[C@H](O)[C@@H](O)[C@@H]2O)[C@H](O)[C@H](O)[C@H]1O (stereo partly drawn)	-21	-13
Cc1noc(-c2ccc(C(C)(C)C)cc2)c1C(=O)NCCC1(C)OCCO1	11	0
CCC(=O)NCc1ccc2c(c1)cc(C)n2C	-2	3
Cc1nc2c(=O)n(Cc3ccccc3F)nc(-c3cccs3)c2s1	1	5
Cn1c(=O)c2c(nc(SCCO)n2Cc2ccccc2)n(C)c1=O	10	-7
CC1CN(C(C)(C)CNS(=O)(=O)c2ccc(F)c(F)c2)CC(C)O1 (stereo not drawn)	6	2
CCCn1c(CCC(=O)N=c2sccn2C)nc2cc(S(N)(=O)=O)ccc21	-5	0
CCOC(=O)C1(Cc2ccccc2)CCN(Cc2cn[nH]c2-c2ccccc2)CC1	0	2
Cn1c(CNC(=O)c2sccc2Br)n[nH]c1=S	-4	-1
c1ccc2c(c1)NCCS2	4	4
CCN(CC)Cc1cnc2c(C(=O)Nc3cccc4cc(C)oc34)cnn2c1	15	24
O=C(c1ccc2c(c1)OCCO2)N(Cc1ccccn1)c1nc2c(F)cccc2s1	0	1

The list goes on.
Structure	NPYLR7 ag max-min	NPYLR7 ag
NC(N)=Nc1ccc(Cl)cc1	8	16
O=C(Nc1ccc(N2CCN(C(=O)C3CCCO3)CC2)nn1)c1ccccc1 (stereo not drawn)	6	14
COc1ccc(OC(F)(F)F)cc1CC1(C)C(=O)Nc2cccc(Cl)c21 (stereo not drawn)	2	2
CCCOC(=NC1CC1)NC(=O)c1cccc(OC)c1	19	22
CN(C)CCCNCCCNC(=O)c1ccncc1	6	5
COCCCNc1nc(Nc2ccc(C)c(C)c2)c2cnn(-c3ccccc3)c2n1	1	3
CCOC(=O)c1cnn2c(C)cc(C)nc12	9	12
CCC(CC)C(=O)N(C)c1c(C)nc2ccc(C(=O)NCCN3CCCC3)cn12	10	19
O=C(CSc1ccccn1)Nc1cc(F)ccc1F	13	1
O=C(Nc1ccccc1SC1CCCC1)c1ccc(-n2cnnc2)cc1	3	2
O=C1CC(c2ccccc2-c2ccccc2)c2c(n[nH]c2C(=O)O)N1 (stereo not drawn)	5	7
CCOCCCN(CC(=O)N(CCc1ccc(OC)c(OC)c1)Cc1ccc(C)o1)C(=O)c1ccccc1F	10	3
COc1ccc(Cl)c2sc(N(Cc3ccco3)C(=O)c3cc(C)no3)nc12	4	-3
O=C(NCCc1ccc(Br)s1)N1CCN(c2ccccc2F)CC1	-9	-1
Cc1cc(C)cc(C(O)c2ncc(-c3ccccc3)[nH]2)c1 (stereo not drawn)	-2	-2
O=C(c1csc2nc(-c3ccccc3)cn12)N1CCN[C@H]2CS(=O)(=O)C[C@H]21	5	8
CCC1CN(C(=O)c2ccccc2NC)CCC(=O)N1Cc1ccccc1 (stereo not drawn)	-1	0
CCOc1nn(CC)cc1-c1nnc(SCC(C)=O)n1C	6	6
Cc1ccccc1-n1nc(C(C)C)c(C(=O)NCc2ccccn2)c1C(C)C	14	8
CCCCOc1ccc(C(=O)N2CCN(S(=O)(=O)c3cc4c5c(c3)CCN5C(=O)CC4)CC2)cc1	4	-5
O=C(CN1CCC(c2ccccc2)CC1)N1CCCC(CO)(Cc2ccccc2)C1 (stereo not drawn)	-1&10	2&10
Cn1ccc(C(=O)Nc2ccc(F)c(-n3cccc3)c2)cc1=O	-3	-4
CCCCCCc1ccc(C(=O)Nc2ccc(N3CCN(c4ccccc4OC)CC3)c(C(=O)NCCN3CCOCC3)c2)cc1	-2	-8
COc1cccc(OCc2nc(C(=O)N3CCCC3c3nccs3)co2)c1 (stereo not drawn)	2	7
CCCS(=O)(=O)NCc1cccnc1Oc1ccc(C)c(F)c1F	-3	-1
Cc1ccc(Nc2cc(C)nc(N3CCN(C(=O)CCCc4ccccc4)CC3)n2)cc1	4	15
COc1ccc(C=Nn2c(=S)[nH]nc(C)c2=O)cc1	-4	-3
Oc1ccc(N=Nc2ccc(F)cc2)c2cccnc12	-1	2
CCCc1noc(CCCC(=O)N(CC(N)=O)Cc2ccccc2)n1	0	2
Cc1ccc(NC(=O)N2CCc3nc(Cc4cccc(C)c4)[nH]c(=O)c3C2)cc1	3	-4

13 compounds already listed, ordered by molar mass, smallest number first:
Structure	NPYLR7 ag max-min	NPYLR7 ag
NC(N)=Nc1ccc(Cl)cc1	8	16
COc1ccc(C=Nn2c(=S)[nH]nc(C)c2=O)cc1	-4	-3
O=C(CSc1ccccn1)Nc1cc(F)ccc1F	13	1
CCOc1nn(CC)cc1-c1nnc(SCC(C)=O)n1C	6	6
Cn1ccc(C(=O)Nc2ccc(F)c(-n3cccc3)c2)cc1=O	-3	-4
O=C(Nc1ccccc1SC1CCCC1)c1ccc(-n2cnnc2)cc1	3	2
Cc1ccccc1-n1nc(C(C)C)c(C(=O)NCc2ccccn2)c1C(C)C	14	8
O=C(Nc1ccc(N2CCN(C(=O)C3CCCO3)CC2)nn1)c1ccccc1 (stereo not drawn)	6	14
COc1cccc(OCc2nc(C(=O)N3CCCC3c3nccs3)co2)c1 (stereo not drawn)	2	7
Cc1ccc(NC(=O)N2CCc3nc(Cc4cccc(C)c4)[nH]c(=O)c3C2)cc1	3	-4
O=C(c1csc2nc(-c3ccccc3)cn12)N1CCN[C@H]2CS(=O)(=O)C[C@H]21	5	8
O=C(CN1CCC(c2ccccc2)CC1)N1CCCC(CO)(Cc2ccccc2)C1 (stereo not drawn)	-1&10	2&10
Cc1ccc(Nc2cc(C)nc(N3CCN(C(=O)CCCc4ccccc4)CC3)n2)cc1	4	15

(continued)
Structure	NPYLR7 ag max-min	NPYLR7 ag
CC(=O)Nc1nc(-c2ccc(C)cc2)c(-c2ccccc2)s1	10	10
CCc1ccccc1NC(=O)Cn1ccn2nc(-c3ccc(C)cc3)cc2c1=O	3	4
CCc1nc(N(CCC(=O)NCc2cccc(C(F)(F)F)c2)C2CCCCC2)c2ccc(Cl)cc2n1	8	-2
CCc1ccc[n+](C2=C(c3c(C(C)C)[nH]n(-c4ccccc4)c3=O)C(=O)N(c3ccccc3)C2=O)c1	4	6
Cc1nn(C)c(C)c1CN(C(=O)c1cc2ccccn2n1)C(C)C	1	1
Nc1nn(C(=O)C2COc3ccccc3O2)c2ccccc12 (stereo not drawn)	12	15
O=C(Nc1ccccc1)C1CCCN(C2CCOC2=O)C1 (stereo not drawn)	9	11
COc1cccc(CC(=O)Nc2cnc3cnc(-c4ccoc4)cn23)c1	-10	-3
CCn1c(-c2ccc(OCC(=O)NC)c(OC)c2)nc2cc(F)ccc21	6	10
CC(=O)Oc1ccccc1C(=O)N1CCN(c2c(Cc3ccccc3)c(C)nc3ncnn23)CC1	8	15
Cc1cc(CNS(=O)(=O)c2ccc(Br)c(F)c2)no1	-29	-31
Cc1ccccc1Oc1ncccc1CNC(=O)Cn1cccnc1=O	5	6
COCCN(Cc1nc2cc(Cl)ccc2o1)C(=O)c1ccc(-c2ccccc2)cc1	-2	-6
COCCN(Cc1cc(NC(=O)c2ccccc2Cl)ccc1N(C)C)C(=O)Cc1cccs1	3	-4
CCOC(=O)c1cnc2cc(C(F)(F)F)ccc2c1Nc1ccc(C(=O)OC)cc1	19	25

Part of the list above, with two lines to a compound:
Sequence of screens – NPYLR7 ag max-min, NPYLR7 ag
- CC(=O)Nc1nc(-c2ccc(C)cc2)c(-c2ccccc2)s1
  10, 10
- COCCN(Cc1nc2cc(Cl)ccc2o1)C(=O)c1ccc(-c2ccccc2)cc1
  -2, -6

Not all compounds are listed; count on the stated rates, not on these rows.
